Bioassay records from PubChem BioAssay.
KCNQ2 inh = KCNQ2 potassium channel inhibitors, primary screen, cell-based, CHO-K1, FluxOR thallium flux, B-score (AID 2156). O88943. B-score at 10 µM. 310,000 tested, 1.1% active. 20 min; stronger effect = lower value; only compounds with negative scores are shown here; some inactives read as strong as hits;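 active = fluorescence ratio B-score at most minus 3 library SDs, with starting brightness B-score within 2 library SDs, cut at about -5.5 in these data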
Target sequence (O88943 whole entry, looked up): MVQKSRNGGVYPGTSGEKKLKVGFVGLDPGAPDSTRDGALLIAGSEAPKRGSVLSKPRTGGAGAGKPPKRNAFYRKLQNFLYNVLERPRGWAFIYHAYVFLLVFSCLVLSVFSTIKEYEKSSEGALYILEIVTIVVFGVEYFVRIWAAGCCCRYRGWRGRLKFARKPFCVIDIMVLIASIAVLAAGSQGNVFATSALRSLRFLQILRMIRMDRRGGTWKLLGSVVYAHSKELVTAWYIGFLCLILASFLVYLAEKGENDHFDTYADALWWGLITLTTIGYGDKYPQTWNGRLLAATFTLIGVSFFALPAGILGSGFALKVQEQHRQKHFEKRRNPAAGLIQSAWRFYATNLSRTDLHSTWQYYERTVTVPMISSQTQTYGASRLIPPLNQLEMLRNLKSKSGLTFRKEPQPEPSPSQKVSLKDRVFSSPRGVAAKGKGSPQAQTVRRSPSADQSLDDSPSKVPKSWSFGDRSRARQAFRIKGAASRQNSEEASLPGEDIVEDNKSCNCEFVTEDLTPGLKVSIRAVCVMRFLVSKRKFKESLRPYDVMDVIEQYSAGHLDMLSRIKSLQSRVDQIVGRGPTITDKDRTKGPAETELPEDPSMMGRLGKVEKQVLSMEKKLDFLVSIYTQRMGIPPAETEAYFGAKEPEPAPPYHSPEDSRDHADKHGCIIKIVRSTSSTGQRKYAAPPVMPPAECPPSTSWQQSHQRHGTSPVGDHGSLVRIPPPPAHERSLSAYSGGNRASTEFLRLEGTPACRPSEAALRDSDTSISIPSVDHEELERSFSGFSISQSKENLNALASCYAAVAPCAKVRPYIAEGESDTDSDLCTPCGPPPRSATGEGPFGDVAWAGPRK
KCNQ2 inh baseline = further read-out of KCNQ2 inh, marked with its call; B-score; measured here: initial fluorescence intensity artifact check;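 brightness before thallium and not channel activity; 0 = typical well and far values either way flag optical interference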
Numbers without * were called inactive; i = inactive. These rows are one share of the data; count on the stated rates, not on these rows.

The opening 2 entries as a preview:
| KCNQ2 inh | KCNQ2 inh baseline | compound |
| --- | --- | --- |
| i | -0.74 | Cc1ccc(-c2n[nH]c(=O)c3ccccc23)cc1S(=O)(=O)NCCN1CCOCC1 |
| i | -1.6 | O=C(OC1CSc2nc3ccccc3n2C1)c1ccco1 (stereo not drawn) |

The list itself, from the start:
| KCNQ2 inh | KCNQ2 inh baseline | compound |
| --- | --- | --- |
| i | -0.74 | Cc1ccc(-c2n[nH]c(=O)c3ccccc23)cc1S(=O)(=O)NCCN1CCOCC1 |
| i | -1.6 | O=C(OC1CSc2nc3ccccc3n2C1)c1ccco1 (stereo not drawn) |
| i | -0.31 | CCNC(=S)N(CCc1c(C)[nH]c2ccc(C)cc12)Cc1cc(OC)c(OC)c(OC)c1 |
| i | 3.1 | CCCCS(=O)(=O)N1CCCC(C(=O)Nc2ccc3c(c2)CCC3)C1 (stereo not drawn) |
| i | 1.8 | Cc1nnc(NC(=O)CC(NC(=O)C(F)(F)F)c2ccccc2)s1 (stereo not drawn) |
| i | 0.65 | CC(C)C[C@H](NC(=O)[C@@H]1Cc2c([nH]c3ccccc23)C2c3ccccc3C(=O)N21)C(=O)N1CCC[C@@H]1C(=O)O (stereo partly drawn) |
| i | -0.07 | O=C(COC(=O)C1=COCCO1)Nc1ccc2c(c1)OCO2 |
| i | 0.28 | CCN(CC)S(=O)(=O)c1ccc2c(c1)[nH]c(=S)n2CC |
| i | -1.4 | CN(CC(=O)Nc1ccc(Cl)cc1)C(=O)c1cccc(S(=O)(=O)N(C)C)c1 |
| i | -0.57 | CCCCOc1ccc(NC(=O)[C@@H]2CCCN2C(=O)C2CCN(S(=O)(=O)c3ccc(C)cc3)CC2)cc1 |
| i | -0.03 | Cc1c(Cl)cccc1NC(=O)NCc1ccccn1 |
| i | -1.3 | COC(=O)C1=C(C)NC(=S)NC1c1ccc(-c2ccccc2C(=O)OC)o1 (stereo not drawn) |
| i | -0.12 | ClCC1=Nc2cccc3cccc(c23)N1 |
| i | 1.7 | CCN1CCN(C(=O)c2ccc(CS(=O)(=O)Cc3ccccc3C)o2)CC1 |
| i | -0.29 | CCOC(=O)N1CCC(NC(=O)c2ccc3snnc3c2)CC1 |
| i | -0.45 | CSc1ccc(CN(C)CC(=O)Nc2ccc(C)cc2Br)cc1 |
| i | -0.05 | O=C(O)c1cccc(N2C(=O)c3cccc4cccc(c34)C2=O)c1 |
| i | 1.9 | COC(=O)N[C@H](c1ccccc1)[C@@]1(C)C[C@@H]1[C@@H](C)C(=O)Nc1ccc2ccccc2c1 |
| i | 0.15 | Cc1ccc(Cl)c2c1NC(=O)C2(O)CC(=O)c1ccc(F)cc1 (stereo not drawn) |
| i | -0.02 | Cc1ccc(CN2CCN(Cc3cnc(N(C)C)s3)CC2CCO)o1 (stereo not drawn) |
| i | -0.34 | O=C(C1COc2ccccc2O1)N1CCN(c2ccccc2F)CC1 (stereo not drawn) |
| i | -0.34 | CC(C)CC(=O)Nc1nnc(S(=O)(=O)Nc2ccccc2)s1 |
| i | 0.76 | Cc1nn2c(NCc3ccccn3)cc(C(C)(C)C)nc2c1-c1ccccc1 |
| i | 1.6 | Cc1cc(C)nc(NC(=O)NC(=O)c2ccccc2)n1 |
| i | -0.54 | COCCNCC(=O)C12CC3CC(CC(C3)C1)C2 |
| i | 0.16 | Nc1ccc(S(=O)(=O)c2cccc(N)c2)cc1 |
| i | -0.06 | COC(=O)c1[nH]c2cccc(C)c2c1NC(=O)CN1CCCc2ccccc21 |
| i | 1.1 | CC(=O)C1=C(c2cccc([N+](=O)[O-])c2)N(C(C)=O)n2c(C)nnc2S1 |
| i | -0.39 | CCn1c(=O)c2cc(C(=O)NCCCOC)sc2c2ccccc21 |
| i | 0.42 | Cc1c(Br)c(=O)[nH]c(=O)n1COCc1ccccc1 |
| i | 0.15 | CCOc1ccc(NC(=O)CN2C(=O)COc3ccc(Cl)cc32)cc1 |
| i | -1.2 | c1ccc(-c2nc3c4ccccc4ccn3c2CN2CCOCC2)cc1 |
| i | -1.8 | Nc1ccc(C(=O)OCC(=O)N2CCc3ccccc3C2)cc1[N+](=O)[O-] |
| i | -1.4 | Cc1ccc(CCNS(=O)(=O)c2ccc3c(c2)N(C)CCO3)cc1 |
| i | 2.4 | O=C(N/N=C/c1cccc(O)c1)c1ccc(NC(=O)C2CCCCC2)cc1 |
| i | 0.4 | COc1cc2cc(C(=O)O)n(C)c2c(OC)c1OC |
| i | 0.44 | CCCOC(=O)Cc1n[nH]c(=O)[nH]c1=O |
| i | 1.1 | O=C(Cc1ccc(Cl)cc1)N/N=C1\CCCc2ccccc21 |
| i | 0.05 | Cn1ncc(Cl)c1C(=O)NNC(=O)Nc1cccc2ccccc12 |
| i | -1 | Cc1ccc(N(C(=O)c2snc(C(N)=O)c2N)C(C(=O)NCC2CCCO2)c2ccc(C)o2)c(C)c1 (stereo not drawn) |

Reformatted as labelled records: entries from further up.
c1ccc(-c2nc3c4ccccc4ccn3c2CN2CCOCC2)cc1
  KCNQ2 inh: i | KCNQ2 inh baseline: -1.2

COc1cc2cc(C(=O)O)n(C)c2c(OC)c1OC
  KCNQ2 inh: i | KCNQ2 inh baseline: 0.4

O=C(C1COc2ccccc2O1)N1CCN(c2ccccc2F)CC1 (stereo not drawn)
  KCNQ2 inh: i | KCNQ2 inh baseline: -0.34

Following part
| KCNQ2 inh | KCNQ2 inh baseline | compound |
| --- | --- | --- |
| i | 0.45 | Cc1ccccc1N1CCN(C(=S)c2ccc(-c3ccc([N+](=O)[O-])cc3)o2)CC1 |
| i | -0.77 | C/C(=N\NS(=O)(=O)c1cccc([N+](=O)[O-])c1)c1cc2ccccc2o1 |
| i | 0.18 | CC(C)(Oc1ccc(Cl)cc1)C(=O)NC1CCN(Cc2ccccc2)CC1 |
| i | 1.1 | CCNC(=S)N(CCO)Cc1cc2cc3c(cc2[nH]c1=O)OCO3 |
| i | -1.8 | O=C(NC1CCOC1)c1cc(COc2cccc(C(F)(F)F)c2)on1 (stereo not drawn) |
| i | 0.88 | Cc1c(Cl)cccc1NC(=S)N(Cc1ccccc1)Cc1cccnc1 |
| i | -0.18 | Cc1ccc(S(=O)OCC(=O)Nc2cc(Cl)ccc2N2CCOCC2)cc1 (stereo not drawn) |
| i | 0.05 | CC(C)c1cc(=O)n2[nH]c(SCc3ccccc3Cl)nc2n1 |
| i | -1.8 | COc1ccc(/C=N/NC(=O)c2snnc2C)c(OC)c1OC |
| i | 0.07 | CCCCCNCC(=O)Nc1cccc(C(=O)Nc2cccc(C(F)(F)F)c2)c1 |
| i | -0.3 | Cc1ccc2c(c1)N(S(=O)(=O)c1cc(-c3cc(C)no3)ccc1C)CCO2 |
| i | -0.87 | CCOC(=O)C1(Cc2cccc(Cl)c2)CCCN(C(=O)c2occc2C)C1 (stereo not drawn) |
| i | 0.43 | O=C(Nc1ccc(F)cc1)Nc1ccc(N2CCCC2)c(S(=O)(=O)Nc2ccccc2Cl)c1 |
| i | -0.38 | CCOc1ccc2nc(SCC(=O)c3ccccc3)sc2c1 |
| i | -0.01 | Cc1cc(C)n(CC(C)NC(=O)c2cc(COc3c(F)cccc3F)on2)n1 (stereo not drawn) |
| i | -0.05 | C=CCOc1ccc(/C=C2\SC(=S)N(N3CCOCC3)C2=O)cc1 |
| -6.9* | 0.79* | COc1ccccc1N1CCN(c2nc(C)nc3c2oc2ccccc23)CC1 |
| i | -0.27 | CCS(=O)(=O)N1CCCC(C(=O)NCc2ccccc2Cl)C1 (stereo not drawn) |
| i | -0.07 | CCCCc1nnc(SCC(=O)Nc2nccs2)n1C |
| i | 0.31 | O=C(NCc1ccncc1)C1CCN(S(=O)(=O)c2cc(Cl)ccc2Cl)CC1 |
| i | -0.15 | CCCCC#Cc1cncc(C(=O)N/N=C/c2ccccc2)c1 |
| i | -2.9 | N#CCC(=O)N/N=C/c1cn(Cc2ccc3ccccc3c2)c2ccccc12 |
| i | 1.2 | N#Cc1cccc(NC(=O)Cc2ccccc2)c1 |
| i | 1.7 | COc1ccc(Cl)cc1C(=O)NNC(=O)CCNC(C)=O |
| i | 0.69 | Cc1c(NS(=O)(=O)c2ccc3c(c2)n(C)c(=O)n3C)c(=O)n(-c2ccccc2)n1C |
| i | 2 | Cc1ccc(/C=C2\Oc3cc(OC(=O)N4CCOCC4)ccc3C2=O)cc1 |
| i | -0.84 | COc1ccc2oc(CS(=O)c3ccccc3)c(C(=O)O)c2c1 (stereo not drawn) |
| i | -0.14 | Cc1ccc(S(=O)(=O)N(C)CC(=O)N2CCC(C(N)=O)CC2)cc1 |
| i | 0.62 | COc1ccc(C2CC(c3ccccc3)=NN2S(=O)(=O)c2ccc(C)cc2)c(OC)c1 (stereo not drawn) |
| i | -0.2 | CC(=O)CC(C)(C)Nc1nc2ccc([N+](=O)[O-])cc2o1 |
| i | -0.15 | CC(=O)Nc1cccc(OC(=O)N2CCOCC2)c1 |
| i | -0.71 | CCN(CC(=O)Nc1ccc(OC)cc1)C(=O)c1ccc([N+](=O)[O-])cc1 |
| i | -1.8 | O=C(O)c1ccc2c(=O)n(-c3ccccc3)c(=S)[nH]c2c1 |
| i | -0.26 | Cc1ccc(S(=O)(=O)C(C#N)c2nc3ccccc3nc2N2CCN(C)CC2)cc1 (stereo not drawn) |
| i | -0.31 | CN(C)c1ccc(CNc2ccc3c(c2)ncn3C)cc1 |
| i | 0.96 | O=S(=O)(c1ccccc1)c1nc(-c2ccco2)oc1NCc1ccccc1 |
| -5.7* | 0.41* | CN(CC(=O)NCCc1ccc(F)cc1)Cc1ccc(Br)cc1 |
| i | 0.14 | COc1ccc(OC)c(Nc2nc(NCc3ccco3)c3ccccc3n2)c1 |
| i | -0.39 | O=S(=O)(c1ccccc1)N(Cc1nc(-c2ccccc2)no1)C1CCCCC1 |
| i | 1.5 | COc1ccc(S(=O)(=O)N(Cc2cc3cc(C)ccc3[nH]c2=O)CC2CCCO2)cc1 (stereo not drawn) |
| i | 0.5 | O=C(Nc1ccc(F)cc1F)NC1CCCc2ccccc21 (stereo not drawn) |
| i | -0.07 | COc1ccc(S(=O)(=O)N2CCSCC2)cc1 |
| i | -1.4 | CC(=O)c1cn(-c2ccc(Cl)cc2)c(=O)n(Cc2ccc(Br)cc2)c1=O |
| i | 1.3 | CCOc1ccc(C(CC(=O)O)NC(=O)Cc2ccccc2)cc1OC (stereo not drawn) |
| i | 0.68 | Cc1ccc(-c2nnn(CC(=O)N(CC(=O)NC3CCCC3)c3ccc(F)c(Cl)c3)n2)o1 |
| i | 1.5 | COc1ccccc1-c1cc(N)n(S(=O)(=O)c2ccc(F)c(C)c2)n1 |
| i | 1.4 | Fc1ccccc1CN1CCCC(NC2CCC2)C1 (stereo not drawn) |
| i | -1.4 | O=C(Nc1ccc(Cl)cc1)OCc1cn(-c2ccc(Cl)cc2)nn1 |
| i | 0.18 | CCOC(=O)C1(CCCc2ccccc2)CCN(C2CCN(C(C)=O)CC2)CC1 |
| i | -2.6 | O=C(COC(=O)c1c[nH]c(=O)[nH]c1=O)Nc1ccccc1 |
| i | -0.63 | CCCNC(=O)Cc1c(C)oc2ccccc12 |
| i | 1.3 | CC(=O)NC(=S)Nc1ccc([N+](=O)[O-])cc1C |
| i | -0.03 | Cn1c(=O)cc(OCCCC(=O)N2CCN(Cc3ccc4c(c3)OCO4)CC2)c2ccccc21 |
| i | 1.2 | CC(=O)Nc1ccc(N/C=C/C(=O)c2ccccc2)cc1 |
| i | -0.03 | Cc1ccc(C(=O)OCC(=O)Nc2c(C)n(C)n(-c3ccccc3)c2=O)cc1[N+](=O)[O-] |
| i | -0.32 | O=C(Nc1ccc(-c2nc3ncccc3o2)cc1)c1ccc([N+](=O)[O-])o1 |
| i | 1.4 | Cc1ccc(-n2nnnc2SCC(=O)c2cc(C)n(-c3cc(C)on3)c2C)cc1 |
| i | -0.15 | O=C(NCCc1csc(-c2ccc(C(F)(F)F)cc2)n1)c1cccs1 |
| i | -1.7 | COc1ccc(Cl)cc1S(=O)(=O)NC(C)C(=O)NCc1cccnc1 (stereo not drawn) |
| -6.2* | 0.01* | CCCN1C(=O)/C(=C/c2ccc(C)s2)SC1=Nc1ccc(OC)cc1 |

Other structures follow:
| KCNQ2 inh | KCNQ2 inh baseline | compound |
| --- | --- | --- |
| i | -0.39 | Cc1c(C(=O)N(CCC#N)c2ccccc2)sc2nc3n(c(=O)c12)CCCC3 |
| i | 2.1 | O=C(N/N=C(\c1ccccc1)c1cccnc1)c1ccc(O)cc1 |
| i | -0.07 | CC1(C(=O)CSc2nc3ccccc3[nH]2)CCC(=O)O1 (stereo not drawn) |
| i | 2.8 | CN(Cc1cccs1)C(=O)COc1ccc(-c2nnco2)cc1 |
| i | 0.82 | O=C(O)CCc1ccc(-c2cccs2)n1NC(=O)c1ccc(O)cc1 |
| i | -0.08 | CN(CCCNC(=O)c1cccn2c(=O)c3ccccc3nc12)Cc1ccccc1 |
| i | 1.1 | O=C(O)c1ccc(C(=O)c2ccc3c(c2)C(=O)N(CCO)C3=O)cc1 |
| i | 0.03 | O=C(CN1CCN(Cc2ccccc2Cl)C1=O)NCCCN1CCOCC1 |
| i | -0.45 | COc1ccc(S(=O)(=O)NN(C)c2nc(C(F)(F)F)nc3ccccc23)cc1 |
| i | 0.03 | O=C1N[C@@H](Cc2cnc[nH]2)C(=O)N2CCC[C@@H]12 |
| i | -0.53 | CC(=O)OCC1=C(C(=O)O)N2C(=O)C(NC(=O)c3ccc(F)cc3)C2SC1 (stereo not drawn) |
| i | 0.86 | O=C(O)c1ccccc1Nc1ccc([N+](=O)[O-])c2nonc12 |
| i | -1.9 | O=C(NCc1ccccc1)c1ccccc1C(=O)c1ncc[nH]1 |
| i | 1.5 | CCCN1C(=O)CC(Sc2ncccc2C(=O)O)C1=O (stereo not drawn) |
| i | 0.48 | CCOc1ccc(-c2nnc3ccc(SC(C)C)nn23)cc1 |
| i | 1.2 | CNCC(=O)Nc1c(C)n[nH]c1C |
| i | -1.8 | COc1ccccc1N1CCN(C(=O)Cn2nc3n(C)c4ccccc4n3c(=O)c2=O)CC1 |

Complete entries, quoted from the list.
CC(=O)C1=C(c2cccc([N+](=O)[O-])c2)N(C(C)=O)n2c(C)nnc2S1 is entered as KCNQ2 inh = i; KCNQ2 inh baseline = 1.1
CCOC(=O)C1(CCCc2ccccc2)CCN(C2CCN(C(C)=O)CC2)CC1 is entered as KCNQ2 inh = i; KCNQ2 inh baseline = 0.18
